# Screening results as filed in PubChem BioAssay.
# TRPML1 agonist: agonists of human TRPML1 channel. activation, % (test concentration not listed). 0.12% of 410,000 active. TRPML1-expressing cells, Ca2+ dye fluorescence, FDSS; host cell line not named in the record; reference of the full effect not given here. Q9GZU1; in the data active = activation above about 50%; inconclusive = about 30% to 50%; inactive = below about 30%; also: 0% is about no effect; the text of the record puts the active cut at 80%
# Target sequence (Q9GZU1 whole entry, looked up): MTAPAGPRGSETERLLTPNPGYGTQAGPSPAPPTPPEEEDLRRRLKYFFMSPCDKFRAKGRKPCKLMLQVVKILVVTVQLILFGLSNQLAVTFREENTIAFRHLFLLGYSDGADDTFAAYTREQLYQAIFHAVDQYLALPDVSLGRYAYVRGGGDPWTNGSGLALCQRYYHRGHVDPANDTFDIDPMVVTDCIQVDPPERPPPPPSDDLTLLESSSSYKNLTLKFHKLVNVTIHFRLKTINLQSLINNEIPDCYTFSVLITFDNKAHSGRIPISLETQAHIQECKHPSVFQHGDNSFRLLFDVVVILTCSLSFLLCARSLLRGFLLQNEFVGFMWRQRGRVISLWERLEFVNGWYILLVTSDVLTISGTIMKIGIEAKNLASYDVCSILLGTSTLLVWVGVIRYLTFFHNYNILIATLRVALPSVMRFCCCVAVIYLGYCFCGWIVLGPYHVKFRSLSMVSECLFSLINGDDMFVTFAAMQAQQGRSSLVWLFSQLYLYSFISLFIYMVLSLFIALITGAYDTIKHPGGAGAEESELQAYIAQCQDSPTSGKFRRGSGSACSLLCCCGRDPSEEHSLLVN
#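 Calcium fluorescence on an FDSS kinetic reader gave the read-out. Tet-induced TRPML1-DL cells were plated overnight, dye-loaded (Ca8 with quencher, 45-90 min, room temperature, dark), then read 110 s after compound addition, and again 110 s after 4uM final 54-4 (EC80).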
# TRPV1 potentiator: potentiators of human vanilloid receptor 1 (TRPV1); Q8NER1; TRPV1-expressing cells, Fluo-8 calcium influx, capsaicin EC20 potentiation; host cell line not named in the record; control for the full effect not named in the record; potentiation, % at 8.33 µM; 0.02% of 320,000 active; active means potentiation above 80%; inconclusive means 30% to 80%; inactive means below 30%; also: 0% is about no effect
#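 Fluo-8 calcium influx in TRPV1-expressing cells, kinetic read (ex 480/em 520 nm). Compound added and read 3 min for agonist activity, followed by capsaicin at EC20 final and 2 min further read for enhancement.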
# D2 potentiator: positive allosteric modulators of human D2 dopamine receptor | 0.23% of 360,000 active | AID 624464 | potentiation, % (concentration not given with the values) | DiscoveRx D2 beta-arrestin cells, luminescence, 90 min; 100% = 57 uM dopamine signal | P14416; active = potentiation of 50% or more; inconclusive = 30% to 50%; inactive = 30% or less;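 also: compound concentration not given in the record; tested on top of an EC20 dose of dopamine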
# Target sequence (P14416 whole entry, looked up): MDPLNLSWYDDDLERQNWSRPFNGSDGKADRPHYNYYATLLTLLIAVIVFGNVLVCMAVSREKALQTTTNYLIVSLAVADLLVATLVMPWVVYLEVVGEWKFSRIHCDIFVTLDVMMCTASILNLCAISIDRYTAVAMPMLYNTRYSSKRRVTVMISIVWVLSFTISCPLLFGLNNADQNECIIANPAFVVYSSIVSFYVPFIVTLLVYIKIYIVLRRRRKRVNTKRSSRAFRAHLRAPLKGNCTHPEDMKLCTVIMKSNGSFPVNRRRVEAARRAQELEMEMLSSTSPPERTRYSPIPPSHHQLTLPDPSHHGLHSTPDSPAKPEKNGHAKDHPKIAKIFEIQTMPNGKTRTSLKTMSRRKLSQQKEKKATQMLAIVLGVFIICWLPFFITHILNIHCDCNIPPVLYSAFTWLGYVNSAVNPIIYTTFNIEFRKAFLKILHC
#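 PathHunter D2 cells, attached overnight at 37 deg C, received compound in DMSO plus dopamine at EC20 (50 nM final) for 90 min at 37 deg C. Beta-arrestin recruitment was read as luminescence after 1 h with detection reagent at ambient temperature.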
# CtBP-E1A blk: CtBP/E1A binding inhibition. 0.49% of 340,000 active. AID 651724. activity change, % (test concentration not listed). AlphaScreen GST-E1A/His-CtBP binding, 1536-well; hits give low values; control for the full effect not named in the record; in the data active means activity change below about -65%; inconclusive means about -30% to -65%; inactive means above about -30%; also: % is scaled to controls: 0 for no effect and ±100 for the full control effect; compound concentration not given in the record
#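 Steps: dispense buffer (Tris pH 8.0, NaCl 300 mM, TCEP 1 mM, BSA, Tween 20); add 5X protein mix (GST-E1A, His-CtBP, 125 nM each); pin 23 nL compound; 2 h at 37 °C, dark; add 5X beads (50 ug/mL); 1 h; read.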
# TRPML1 inh: human mucolipin-1 channel inhibition | TRPML1-inducible cells, Ca2+ dye fluorescence, FDSS; hits give low values; inhibition of EC80 agonist-evoked calcium signal | activity change, negative = inhibition, % (test concentration not listed) | 0.02% of 390,000 active; in the data active means activity change below about -50%; inconclusive means about -30% to -50%; inactive means above about -30%;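 also: stimulus is agonist 54-4 at its EC80 concentration; % is scaled to controls: 0 for no effect and ±100 for the full control effect; compound concentration not given in the record; the text of the record puts the active cut at -80%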
#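 TRPML1-DL cells, Tet-induced overnight (~16 h, 37 °C) at 1,500 cells/well, were loaded with Ca8 no-wash dye plus quencher for 45-90 min at room temperature. Compounds were pinned during FDSS kinetic reading; agonist 54-4 at EC80 (4 uM final) then added.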
# Six1-Eya2 inh: Six1/Eya2 interaction inhibition. Q15475+O00167. AlphaScreen GST-Six1/His-Eya2 binding, biochemical; hits give low values; control for the full effect not named in the record. activity change, % (no concentration beside the values). 0.56% of 360,000 active. AID 651725; in the data active = activity change below about -65%; inconclusive = about -30% to -65%; inactive = above about -30%; also: % is scaled to controls: 0 for no effect and ±100 for the full control effect; compound concentration not given in the record
#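 GST-Six1 + His-Eya2 (5X stock: 250/500 nM); Tris pH 8.0, 300 mM NaCl, 0.05% BSA, 0.02% Tween 20; GSH donor/Ni acceptor beads; 1 h 37 °C dark; AlphaScreen readout.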
# * hit, by the source's call; ? = inconclusive; . = no result given.
SMILES,TRPML1 agonist,TRPV1 potentiator,D2 potentiator,CtBP-E1A blk,TRPML1 inh,Six1-Eya2 inh
Cc1ccc(C(=O)c2cc([N+](=O)[O-])ccc2N2CCOCC2)cc1,1.0,0,-6,-1,1,3
Cc1cc(C)c(C)c(OCCCN(C)C)c1,-0.5,10,-16,4,0,3
COC(=O)c1cccc(C#CC(NP(=O)(c2ccccc2)c2ccccc2)c2ccccc2)c1 (stereo not given),1.5,-8,-9,-5,10,-13
CC(C)C1C(=O)N(Cc2cn(CCC3OCCCO3)nn2)CCS(=O)(=O)N1Cc1ccc(-c2ccncc2)cc1 (stereo not given),-0.6,.,0,4,5,2
c1ccc2c(c1)nc1n2CC2CON(C3CCCCC3)C12 (stereo not given),-0.7,4,-13,-4,-4,4
COc1ccc(S(=O)(=O)N(C)c2ccc(C(=O)Nc3ccccc3C(=O)N3CCOCC3)cc2)cc1,0.0,-14,9,-2,15,-2
Cn1cnc2c(SCc3ccccc3)ncnc21,-0.4,.,1,1,10,-2
CCOC(=O)N1CCN(C(=O)CCN2C(=O)COc3ccccc32)CC1,0.9,-15,-7,-5,17,8
Cc1ccc(S(=O)(=O)c2c(C)cc(C)nc2N2CCOCC2)cc1,-0.2,24,-24,-17,2,13
CCOC(=O)C1(CCCc2ccccc2)CCN(C2CCN(C(C)=O)CC2)CC1,-0.2,-10,-9,-2,12,-10
Cc1cccc(C(=O)NCC(=O)NC(C)CCc2ccccc2)c1 (stereo not given),-0.4,0,-6,5,7,6
COc1cc(C(=O)OCC(=O)Nc2ccc(SC(F)F)cc2)cc(OC)c1OC,4.3,2,6,4,-2,-4
O=C(CC1C[C@H](C(=O)N2CCCCC2)[C@@]2(CCc3ccccc3)c3[nH]c4ccccc4c3CCN2C1=O)NCCC1=CCCCC1 (stereo not given in full),0.3,.,.,-3,7,6
COC(=O)COC(=O)c1ccc(-n2nnnc2SC)cc1,0.7,-13,-7,-1,-6,6
CC(=O)Nc1ccc(S(=O)(=O)NCCC(=O)OCc2nc(N)nc(Nc3ccccc3C)n2)cc1,-0.5,0,-6,2,26,-18
CNC(=O)C(NC(=O)Nc1ccc(C)cc1)C(C)(C)C (stereo not given),-0.2,1,-8,-1,-2,-1
Cn1c(=O)oc2cc(NC(=O)CCl)ccc21,0.2,-4,-1,-4,5,5
O=C(CN(c1ccccc1F)S(=O)(=O)c1ccccc1)N1CCCCCC1,-0.7,-10,5,4,-3,13
CC(=O)c1sc(NC(=O)C(C)Oc2ccc3c(C)cc(=O)oc3c2)nc1C (stereo not given),-0.6,?,-15,-4,-15,-11
O=C(C1=C(O)C(=O)N(CCN2CCOCC2)C1c1cccc([N+](=O)[O-])c1)c1cccs1 (stereo not given),0.1,0,1,0,-9,17
COc1ccc(/C=N/NC(=O)C2C3CCCCC32)cc1OC (stereo not given),1.2,3,9,1,26,-4
Cc1cccc(/C(N)=N/OC(=O)Cc2cccs2)c1,2.7,-10,8,34,-21,32
CC(C)(C)C(=O)c1no[n+]([O-])c1/C(=N/O)C(C)(C)C,0.7,1,-15,-1,7,6
CCn1c(CCCOc2ccc(Cl)cc2Cl)n[nH]c1=S,1.4,-7,-5,16,21,2
CCOc1cnc(C(=O)NNC(=O)C(Br)C(C)C)o1 (stereo not given),-0.4,8,-1,10,-13,3
COC(=O)c1sccc1NC(=O)c1ccccc1C(=O)O,0.2,.,-10,-2,22,5
CSc1ccc(C2NC(=O)c3ccccc3N2)cc1 (stereo not given),8.1,.,-3,6,11,0
CCOc1ccc(NC(=O)CSc2nc3ccccc3c(=O)n2CCCC(=O)N2CCCC2)cc1,0.6,2,3,2,-6,1
O=C(CCCCCNC(=O)c1ccccc1Cl)N/N=C/c1ccco1,-0.8,0,-10,2,9,-3
Fc1ccc(-n2cc(-c3ccccc3)[n+]3c2SCC3)cc1,0.2,3,-12,.,-15,3
c1ccc2c3nnc4n(c-3nc2c1)CCCS4,0.2,11,-8,-18,-3,-2
COc1ccc(OCc2cc(C(=O)NCC3(C)COC3)no2)c(Cl)c1,0.2,16,10,-2,1,3
COC(=O)c1ccc2nc(-c3cccc(Cl)c3)c(Cc3cccc(F)c3)n2c1,1.3,.,.,2,.,1
CC(C)n1cnc2c(Nc3cccc(Cl)c3)nc(NCCCO)nc21,-0.3,-11,-11,-14,-14,-13
O=C(CN1CCSCC1)N/N=C/c1ccc(F)cc1,-0.1,2,-4,1,1,2
COc1cccc(-c2cccc(NC(=O)C3CCN(Cc4nccs4)CC3)c2)c1,-0.4,-23,-28,8,-7,-1
O=C(C1COc2ccccc2O1)N1CCN(c2ccccc2F)CC1 (stereo not given),0.6,-7,-16,4,22,3
CCOc1ccc(-c2c(C(=O)N/N=C/c3ccoc3)nnn2-c2nonc2N)cc1,0.3,8,-5,-8,7,4
N=c1oc2cc(O)ccc2cc1C(=O)Nc1ccc(Br)cc1,0.7,?,0,19,6,18
CSc1ccccc1C(=O)N1CCc2ccc(NC(=O)c3ccccn3)cc2C1,-0.7,.,-6,4,-7,-6
O=C(NNC(=S)NC1CC2CCC1C2)c1ccc(Cl)cc1 (stereo not given),0.5,-5,-6,-2,-11,-2
COc1cccc(-c2cnc3c(NC(C)=O)cc(-c4cccc(NC(C)=O)c4)cn23)c1,-1.1,.,4,-2,.,-7
CC(C)CCNC(=O)CC1C(=O)N(Cc2ccccc2)C(C)c2nc3ccccc3n21 (stereo not given),-0.4,-2,1,3,14,0
CC1(C)CC(=O)C=C(NNC(=O)c2ccccc2O)C1,8.0,1,4,1,-7,-1
COc1cc(/C=C2\CC(C(C)(C)C)C/C(=C\c3cc(OC)c(OC)c(OC)c3)C2=O)cc(OC)c1OC (stereo not given),2.4,-8,-5,3,23,-12
O=C1c2ccccc2C(=O)N1CCn1c(=O)oc2ccccc21,-0.2,6,-4,?,-9,-11
CCN1C/C(=C/c2sccc2C)c2nc3ccccc3c(C(=O)O)c2C1,0.0,-16,-27,.,-5,-3
CCOc1ncccc1C(=O)NCc1ccc(C)cc1,0.0,-2,-9,5,0,2
O=C(CCN1CCCCCC1)Nc1cccc(F)c1,0.6,14,-18,-5,-9,14
CCCCc1cc(=O)oc2c(CN(C)C)c(O)c(Cl)cc12,0.1,4,-6,5,-1,4
CN(C)c1ccc(C(=O)NNC(=O)C23CC4CC(CC(C4)C2)C3)cc1,-0.1,.,-7,4,-15,4
CCCSc1nc(=O)n2cccc(C)c2n1,0.1,.,-3,-8,-11,-8
COc1ccc([C@H]2C=C3CN(C(=O)OC(C)(C)C)S(=O)(=O)[C@H]3C[C@H]2OC(=O)c2cccs2)cc1,1.4,-4,-2,-10,7,-8
CC(=O)c1ccc(N2CCN(C(=O)c3cc(-c4ccc5c(c4)OCO5)nc4ccccc34)CC2)cc1,0.7,7,3,8,7,-2
O=C(CN1CCc2cc3c(cc2C1)OCCCO3)Nc1ccc(F)cc1,-0.6,-4,-24,0,3,-3
COC(=O)c1ccccc1NC(=O)CN(c1ccc(OC)cc1)S(C)(=O)=O,-1.0,-6,2,1,7,0
Cc1ccc(-c2nc(CS(=O)(=O)CC(=O)N3CCCCCC3)c(C)o2)cc1,0.9,14,-2,-14,12,8
CC/C=C/C(=O)N1CC2(CC(c3cccc(NC(=O)CC)c3)=NO2)C[C@H]1C(N)=O (stereo not given in full),-0.2,?,-2,.,-12,17
CCN1C[C@@H]2[C@@H]3C(=O)N(Cc4ccccc4)C(=O)[C@@H]3[C@](CC)(C(=O)OC)N2C1=NC1CCCCC1,0.3,.,-4,2,-9,5
CC(CCc1ccccc1)NC(=O)CN1CCN(c2ccccc2)CC1 (stereo not given),0.5,-2,-18,5,-2,3
# New compounds follow.
SMILES,TRPML1 agonist,TRPV1 potentiator,D2 potentiator,CtBP-E1A blk,TRPML1 inh,Six1-Eya2 inh
CCOC(=O)C1CCN(C(=O)CN2C(=O)NC(C)(c3ccc4cc(OC)ccc4c3)C2=O)CC1 (stereo not given),-1.1,.,-7,13,-9,-4
Cc1cc(C)c(C(=O)Cn2cnc3cc([N+](=O)[O-])ccc3c2=O)cc1C,-0.3,1,29,-12,-1,?
COc1ccc(/C=C2/C(=O)ON=C2c2ccccc2)cc1OC,0.8,-3,-8,-2,1,0
Cc1cccc(NC(=O)CSCC(=O)NNC(=O)c2ccoc2C)c1,0.5,-9,-7,-6,1,10
CSCC[C@H](NC(=O)N1CCn2c1nc1ccccc12)C(=O)NCc1ccccc1,0.9,12,-13,-7,-1,-5
O=C(CSc1ncn[nH]1)OCN1C(=O)c2ccccc2C1=O,-0.4,11,-11,7,14,6
Cc1c(NC(=O)c2cc3ccccc3c(=O)s2)c(=O)n(-c2ccccc2)n1C,-0.1,-29,-18,2,-3,1

# Structural class: those above with a COOH group (2)
SMILES,TRPML1 agonist,TRPV1 potentiator,D2 potentiator,CtBP-E1A blk,TRPML1 inh,Six1-Eya2 inh
COC(=O)c1sccc1NC(=O)c1ccccc1C(=O)O,0.2,.,-10,-2,22,5
CCN1C/C(=C/c2sccc2C)c2nc3ccccc3c(C(=O)O)c2C1,0.0,-16,-27,.,-5,-3

# By substructure: the compounds so far with an aryl methoxy group
SMILES,TRPML1 agonist,TRPV1 potentiator,D2 potentiator,CtBP-E1A blk,TRPML1 inh,Six1-Eya2 inh
COc1ccc(S(=O)(=O)N(C)c2ccc(C(=O)Nc3ccccc3C(=O)N3CCOCC3)cc2)cc1,0.0,-14,9,-2,15,-2
COc1cc(C(=O)OCC(=O)Nc2ccc(SC(F)F)cc2)cc(OC)c1OC,4.3,2,6,4,-2,-4
COc1ccc(/C=N/NC(=O)C2C3CCCCC32)cc1OC (stereo not given),1.2,3,9,1,26,-4
COc1ccc(OCc2cc(C(=O)NCC3(C)COC3)no2)c(Cl)c1,0.2,16,10,-2,1,3
COc1cccc(-c2cccc(NC(=O)C3CCN(Cc4nccs4)CC3)c2)c1,-0.4,-23,-28,8,-7,-1
COc1cccc(-c2cnc3c(NC(C)=O)cc(-c4cccc(NC(C)=O)c4)cn23)c1,-1.1,.,4,-2,.,-7
COc1cc(/C=C2\CC(C(C)(C)C)C/C(=C\c3cc(OC)c(OC)c(OC)c3)C2=O)cc(OC)c1OC (stereo not given),2.4,-8,-5,3,23,-12
COc1ccc([C@H]2C=C3CN(C(=O)OC(C)(C)C)S(=O)(=O)[C@H]3C[C@H]2OC(=O)c2cccs2)cc1,1.4,-4,-2,-10,7,-8
COC(=O)c1ccccc1NC(=O)CN(c1ccc(OC)cc1)S(C)(=O)=O,-1.0,-6,2,1,7,0
CCOC(=O)C1CCN(C(=O)CN2C(=O)NC(C)(c3ccc4cc(OC)ccc4c3)C2=O)CC1 (stereo not given),-1.1,.,-7,13,-9,-4
COc1ccc(/C=C2/C(=O)ON=C2c2ccccc2)cc1OC,0.8,-3,-8,-2,1,0
